TRPML1 agonist = qHTS for Agonists of the Human Mucolipin Transient Receptor Potential 1 (TRPML1). Mucolipin-1 (Homo sapiens), Q9GZU1. TRPML1-expressing cells, Ca2+ dye fluorescence, FDSS; host cell line not named in the record; reference of the full effect not given here. activation, % (no concentration beside the values). 0.12% of 410,000 active; in the data active = activation above about 50%; inconclusive = about 30% to 50%; inactive = below about 30%; further: 0% is about no effect; the text of the record puts the active cut at 80%
Target sequence (Q9GZU1 whole entry, looked up): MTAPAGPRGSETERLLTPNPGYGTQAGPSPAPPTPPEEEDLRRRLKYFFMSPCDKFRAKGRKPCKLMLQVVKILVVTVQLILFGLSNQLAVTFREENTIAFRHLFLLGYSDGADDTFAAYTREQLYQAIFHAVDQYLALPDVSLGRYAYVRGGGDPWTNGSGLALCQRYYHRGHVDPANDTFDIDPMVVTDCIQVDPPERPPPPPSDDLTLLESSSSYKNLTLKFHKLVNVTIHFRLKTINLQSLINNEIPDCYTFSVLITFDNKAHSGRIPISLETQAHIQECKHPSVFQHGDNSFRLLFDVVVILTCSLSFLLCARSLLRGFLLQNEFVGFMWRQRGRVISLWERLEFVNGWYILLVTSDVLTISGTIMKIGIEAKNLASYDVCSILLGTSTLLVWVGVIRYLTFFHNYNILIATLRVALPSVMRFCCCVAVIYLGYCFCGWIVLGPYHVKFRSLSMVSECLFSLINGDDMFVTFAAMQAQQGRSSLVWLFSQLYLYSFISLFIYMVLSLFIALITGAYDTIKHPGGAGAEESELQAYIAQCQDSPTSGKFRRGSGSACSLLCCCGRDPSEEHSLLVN
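In this qHTS format, compounds were pin-transferred onto Ca8-dye-loaded TRPML1-DL cells induced with Tet overnight, and intracellular Ca2+ fluorescence was recorded kinetically for 110 s after a 10 s baseline. A subsequent 4uM final 54-4 (EC80) addition followed by a second 110 s read served as the antagonist phase.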
CtBP-E1A inh = qHTS Assay for Inhibitors of the CtBP/E1A Interaction. AlphaScreen GST-E1A/His-CtBP binding, 1536-well; hits give low values; control for the full effect not named in the record. activity change, % (no concentration beside the values). 0.49% of 340,000 active. CtBP / adenovirus E1A interaction (AlphaScreen); in the data active means activity change below about -65%; inconclusive means about -30% to -65%; inactive means above about -30%; further: on the % scale 0 is the no-effect control and ±100 the full control effect; compound concentration not given in the record
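Homogeneous bead-based format: GST-tagged E1A captured on glutathione donor beads, His-tagged CtBP on nickel acceptor beads; compounds precede bead addition by 2 h at 37 °C.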
TRPV1 potentiator = HTS Assay for Compounds that Act as Potentiators of the Vanilloid Receptor 1; potentiation, % at 8.33 µM; 0.02% of 320,000 active; AID 540277, 2011; TRPV1-expressing cells, Fluo-8 calcium influx, capsaicin EC20 potentiation; host cell line not named in the record; control for the full effect not named in the record; Transient receptor potential cation channel subfamily V member 1 (Homo sapiens), Q8NER1; active means potentiation above 80%; inconclusive means 30% to 80%; inactive means below 30%; further: 0% is about no effect
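TRPV1-expressing cells were cultured overnight at 35.5C and loaded with Fluo-8 calcium dye for 40 to 90 min at room temperature. After a 10 s baseline, compound was added and calcium influx was read kinetically for 3 min (ex 480/em 520 nm).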
Six1-Eya2 inh = qHTS Assay for Inhibitors of the Six1/Eya2 Interaction; Homeobox protein SIX1 (Homo sapiens) + Protein phosphatase EYA2 (Homo sapiens), …; AlphaScreen GST-Six1/His-Eya2 binding, biochemical; hits give low values; control for the full effect not named in the record; activity change, % (concentration not given with the values); 0.56% of 360,000 active; in the data active = activity change below about -65%; inconclusive = about -30% to -65%; inactive = above about -30%; further: on the % scale 0 is the no-effect control and ±100 the full control effect
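Compounds are tested against tagged Six1 and Eya2 proteins bridged by glutathione donor and nickel acceptor beads; after a one-hour incubation at 37 °C without light, AlphaScreen emission is recorded.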
D2 potentiator = Beta-Arrestin HTS for Positive Allosteric Modulators of the Human D2 Dopamine Receptor: Potentiators | D(2) dopamine receptor (Homo sapiens), P14416 | DiscoveRx D2 beta-arrestin cells, luminescence, 90 min; 100% = 57 uM dopamine signal | potentiation, % (concentration not given with the values) | 0.23% of 360,000 active; active = potentiation of 50% or more; inconclusive = 30% to 50%; inactive = 30% or less;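 further: compound concentration not given in the record; tested on top of an EC20 dose of dopamine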
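D2 cells co-treated with compound plus 50 nM dopamine (EC20) for 90 min at 37 deg C to detect potentiation. Beta-arrestin recruitment was read as enzyme-fragment luminescence after 1 h at ambient temperature. Full response was set by 57 uM dopamine.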
TRPML1 blocker = qHTS for Inhibitors of the Human Mucolipin Transient Receptor Potential 1 (TRPML1); activity change, negative = inhibition, % (no concentration beside the values); 0.02% of 390,000 active; TRPML1-inducible cells, Ca2+ dye fluorescence, FDSS; hits give low values; inhibition of EC80 agonist-evoked calcium signal; Mucolipin-1 (Homo sapiens), Q9GZU1; in the data active means activity change below about -50%; inconclusive means about -30% to -50%; inactive means above about -30%;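 further: stimulus is agonist 54-4 at its EC80 concentration; on the % scale 0 is the no-effect control and ±100 the full control effect; compound concentration not given in the record; the text of the record puts the active cut at -80%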
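TRPML1-DL cells, Tet-induced overnight (~16 h, 37 °C) at 1,500 cells/well, were loaded with Ca8 no-wash dye plus quencher for 45-90 min at room temperature. Compounds were pinned during FDSS kinetic reading; agonist 54-4 at EC80 (4 uM final) then added.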
* = called active by the depositor; ? = inconclusive; . = no result given. An unsorted share of the library, and some 0.95% of all compounds hit somewhere here.

SMILES	CtBP-E1A inh	TRPML1 agonist	TRPML1 blocker	D2 potentiator	Six1-Eya2 inh	TRPV1 potentiator
CC1CCCN(C(=O)COC(=O)c2n[nH]c3ccccc23)C1 (stereo unspecified)	0	0.0	-18	-8	4	?
CC(=O)N1CCC(N(CCCOC(C)C)C(=O)Nc2ccc(Cl)cc2)CC1	26	-1.0	91	-4	14	.
Fc1ccccc1NC(=S)N1CCN(Cc2ccc3c(c2)OCO3)CC1	-8	0.6	5	-14	-2	2
COc1cccc(N/C(N)=N/c2nc(C(F)(F)F)cc(=O)[nH]2)c1	3	-0.7	20	-2	-2	-7
CCn1c(SCC(=O)Nc2cccc(NC(C)=O)c2)nc2c([nH]c3ccccc32)c1=O	0	0.6	-5	3	-14	-3
CCNc1nc(C(=O)O)nc(N2CCOCC2)n1	-4	1.2	-13	-1	?	18
O=C(c1ccc(S(=O)(=O)NCc2ccco2)cc1)N1CCCC1	-13	0.4	-11	5	15	-5
Cc1ccc(C)c(OCC(=O)N2CCN(C(=O)c3ccco3)CC2)c1	-2	-1.4	10	5	-13	-3
CC(=O)c1cccc(NC(=O)CN(c2ccccc2)S(C)(=O)=O)c1	-1	0.5	-14	-3	-2	1
CCCCC1(C)Nc2ccccc2-c2nc3ccccc3n21 (stereo unspecified)	-3	0.0	-5	9	-1	-11
O=C(Nc1nc(-c2ccc(-c3ccccc3)cc2)cs1)c1cnccn1	1	-0.7	-5	-3	-2	7
COc1ccc(C2C(C(=O)c3ccc(C)o3)=C(O)C(=O)N2Cc2ccco2)cc1OC (stereo unspecified)	3	0.4	1	5	5	27
CC(C)(C)N1OC2CC1c1nc3ccccc3n1C2 (stereo unspecified)	5	-0.2	0	-5	0	-9
CCCC(=O)Nc1cc(Cl)ccc1C	-4	-0.1	0	-4	13	10
COc1ccc(-n2nnnc2-c2cccnc2)cc1	-2	3.3	2	9	2	-3
Cc1cc(NC(=O)CSc2nc3c(C)cccc3cc2C)no1	3	0.5	-10	-4	13	6
COc1ccc(Cl)cc1NC(=O)CCCNC(=O)c1ccc(Cl)cc1	0	-0.5	3	-27	3	4
OCCC1CN(Cc2cccc3c2OCO3)CCN1Cc1ccccc1 (stereo unspecified)	7	-0.9	-12	-3	6	1
Cc1ccc(C(=O)NC(=S)Nc2ccc(NC(=O)c3cccs3)cc2)cc1[N+](=O)[O-]	3	-0.4	11	2	3	2
Nc1nnnn1/N=C/c1ccccc1C(F)(F)F	0	-0.6	12	-27	-1	-5
O=C(Nc1ccc2c(c1)OCCO2)c1cccnc1Oc1ccc(Cl)cc1	-20	0.5	3	2	-4	5
CC1CCCC(C)N1C(=O)Cn1c(SCC(=O)NCc2ccc3c(c2)OCO3)nc2ccccc21 (stereo unspecified)	-25	0.0	6	0	-8	10
COc1ccccc1N1CCN(C(=O)C2CCCN(S(=O)(=O)c3ccc(C)cc3)C2)CC1 (stereo unspecified)	-1	-0.1	17	-12	-4	-8
Cc1ccc(C(=O)Nc2ccc(C(=O)O)cc2NC(=O)c2ccc(C)cc2)cc1	.	.	.	15	1	12
Cc1ccc(S(=O)(=O)NC(C(=O)OCC(=O)NC2CCS(=O)(=O)C2)C(C)C)cc1 (stereo unspecified)	1	-0.6	7	9	5	8
COC(=O)c1ccc(COc2ccc(/C=N/O)cc2)o1	9	-0.3	1	-7	-4	-13
O=C(NCC(=O)N(CCc1ccccc1)C(C(=O)NC1CCCCC1)c1ccncc1)c1ccco1 (stereo unspecified)	-2	0.2	-9	-39	-1	-1
CCOC(=O)n1c(=O)oc2cc(S(=O)(=O)N3CCOCC3)ccc21	8	0.1	11	-8	1	-7
CCCc1cc(=O)oc2c(C)c(OCC(=O)Nc3cccnc3)ccc12	-13	-1.3	-19	-7	-1	-28
CC(C)(C)NC(=O)Nc1ccccc1C(N)=O	3	-0.2	-8	11	5	-3
C(=N\NC1=Nc2cccc3cccc1c23)/c1cccnc1	-12	0.2	17	-15	?	0
CN(CC(=O)NCc1cccnc1)S(=O)(=O)c1ccc(F)cc1	-21	-0.1	-7	5	-6	10
Cc1nn(-c2ccccc2)c(Cl)c1/C=N/NC(=O)c1cccc(S(=O)(=O)N2CCCC2)c1	-11	0.0	8	0	3	1
CCN(C(=O)c1cc2c(C)nc3ccccc3c2o1)c1cc(Cl)ccc1OC	-3	2.3	28	-5	-1	-25
CC(=O)Nc1ccc(S(=O)(=O)NCC2CCC(C(=O)NCCCN3CCCC3=O)CC2)cc1 (stereo unspecified)	4	-0.4	-16	-18	-24	-15
COc1ccccc1-c1noc(-c2ccccc2C(=O)N2CCOCC2)n1	6	-0.8	3	-6	-1	10
CCOC(=O)C1CCCCN1S(=O)(=O)c1ccc2c(c1)CC(C)N2C(=O)C1CCC1 (stereo unspecified)	.	1.4	18	-13	1	-49
CCOc1cc(CNCc2ccccn2)ccc1OCC(=O)NC(C)(C)C	-29	0.6	21	-37	?	-4
CC(C)(C)C(=O)N1CCN(c2ccc([N+](=O)[O-])cc2-n2cccc2)CC1	-17	1.7	35	5	-6	-16
O=C(COC(=O)c1cccnc1Cl)NCCc1ccc(F)cc1	3	0.4	34	-17	1	.
COc1ccc(OC)c(N)c1	13	-0.6	-12	61*	-16	-7
CN(C)S(=O)(=O)c1ccc(N2C(=O)CC2(/C=C/c2ccccc2)C(=O)NC2CCCC2)cc1 (stereo unspecified)	6	-0.3	2	-6	2	-7
O=C(Nc1nnc(-c2ccccc2)s1)c1ccccc1O	2	-0.4	0	-6	-4	4
CCN1CCN(C(=S)NCC(C)C)CC1	18	-0.4	2	-6	7	2
COc1ccc(NC(=S)N2CCN(C(=O)c3ccco3)CC2)cc1OC	11	0.9	1	8	-2	-7
CCCCNC(=O)C1CC(=O)N(CCc2ccc(C)cc2)C1 (stereo unspecified)	3	0.7	9	-1	4	11
COc1ccc(-c2csc(NC3=NCCCCC3)n2)cc1	-16	-0.9	6	-14	-5	-14
COc1ccc(OC)c(NC(=O)Nc2nnc(COCCO)s2)c1	6	-0.2	52	-4	2	.
CCn1cc(C(=O)N2CCN(C3CCCCC3)CC2)c2cc(OC)c(OC)cc2c1=O	-2	-0.6	6	-4	4	?
c1coc(-c2nn3c(-c4ccco4)nnc3s2)c1	-3	0.2	24	-7	-7	-14
CCCC(=O)Nc1sc2c(c1C#N)CC(C)(C)NC2(C)C	-1	0.3	-8	-2	15	22
C=CCNC(=O)CN1CCN(C(c2ccccc2)c2ccccc2)CC1	-4	0.4	-1	-1	4	-14
Fc1cccc(-c2cc3nc4c(c(N5CCOCC5)n3n2)CCCC4)c1	-19	2.5	-15	-6	6	-4
CCC(=O)c1ccc(OCC(=O)Nc2cccc(S(=O)(=O)N3CCCCCC3)c2)cc1	1	0.2	37	25	-6	4
O=C(CSc1nc(O)cc(=O)[nH]1)Nc1ccc2c(c1)CCC2	0	0.7	16	-3	6	-11
O=C(Nc1c(C(=O)N2CCN(c3ccccn3)CC2)oc2ccccc12)c1cccc([N+](=O)[O-])c1	0	-0.7	-5	-12	0	-1
CNC(=O)COC(=O)c1ccccc1C(=O)c1ccc(Cl)c([N+](=O)[O-])c1	.	3.8	13	?	0	17
CCOC(=O)c1[nH]c2ccc(F)cc2c1NC(=O)CCN1CCSCC1	2	-0.3	-11	-4	3	18
Cc1ccc2cc(CN(CCN3CCOCC3)Cc3nnnn3Cc3ccco3)c(=O)[nH]c2c1C	1	-0.7	14	0	-1	-4
O=C(OCC(=O)N1CCCC1)c1cc(Cl)ccc1[N+](=O)[O-]	-1	0.1	17	5	3	0

One compound at a time, as listed above.
`Cc1ccc2cc(CN(CCN3CCOCC3)Cc3nnnn3Cc3ccco3)c(=O)[nH]c2c1C` in the list: CtBP-E1A inh = 1; TRPML1 agonist = -0.7; TRPML1 blocker = 14; D2 potentiator = 0; Six1-Eya2 inh = -1; TRPV1 potentiator = -4
`CCN(C(=O)c1cc2c(C)nc3ccccc3c2o1)c1cc(Cl)ccc1OC` in the list: CtBP-E1A inh = -3; TRPML1 agonist = 2.3; TRPML1 blocker = 28; D2 potentiator = -5; Six1-Eya2 inh = -1; TRPV1 potentiator = -25

Other structures follow.
SMILES	CtBP-E1A inh	TRPML1 agonist	TRPML1 blocker	D2 potentiator	Six1-Eya2 inh	TRPV1 potentiator
COc1ccccc1N1CCN(C(C)C(=O)N2CC(C)OC(C)C2)CC1 (stereo unspecified)	0	-0.2	6	-2	-5	3
COCCn1c(=NC(=O)c2cc(-c3cccs3)nc3ccccc23)sc2cc(S(N)(=O)=O)ccc21	5	0.5	21	-3	2	2
O=C(OCC(=O)N1CCCCCC1)c1ccc([N+](=O)[O-])cc1Cl	-3	-0.1	12	3	-2	-4
COCC(=O)Nc1cc(C)cn(Cc2cccc(C(F)(F)F)c2)c1=O	0	1.2	?	-1	11	-15
c1ccc2c(c1)OCCOCCOCCOCCOc1ccccc1OCCOCCOCCO2	1	-0.3	-6	-7	0	3
Cc1cc(C#N)c(C)c(SCc2[nH]nc3c2C(c2ccccc2)C(C#N)=C(N)O3)n1 (stereo unspecified)	0	0.4	-1	-5	-5	3
